Screening data: PubChem BioAssay, National Center for Advancing Translational Sciences (NCATS)
D2 potentiator = Beta-Arrestin HTS for Positive Allosteric Modulators of the Human D2 Dopamine Receptor: Potentiators; D(2) dopamine receptor (Homo sapiens), P14416; DiscoveRx D2 beta-arrestin cells, luminescence, 90 min; 100% = 57 uM dopamine signal; potentiation, % (no concentration beside the values); 0.23% of 360,000 active; active = potentiation of 50% or more; inconclusive = 30% to 50%; inactive = 30% or less;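 further: compound concentration not given in the record; tested on top of an EC20 dose of dopamine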
Target sequence (P14416 whole entry, looked up): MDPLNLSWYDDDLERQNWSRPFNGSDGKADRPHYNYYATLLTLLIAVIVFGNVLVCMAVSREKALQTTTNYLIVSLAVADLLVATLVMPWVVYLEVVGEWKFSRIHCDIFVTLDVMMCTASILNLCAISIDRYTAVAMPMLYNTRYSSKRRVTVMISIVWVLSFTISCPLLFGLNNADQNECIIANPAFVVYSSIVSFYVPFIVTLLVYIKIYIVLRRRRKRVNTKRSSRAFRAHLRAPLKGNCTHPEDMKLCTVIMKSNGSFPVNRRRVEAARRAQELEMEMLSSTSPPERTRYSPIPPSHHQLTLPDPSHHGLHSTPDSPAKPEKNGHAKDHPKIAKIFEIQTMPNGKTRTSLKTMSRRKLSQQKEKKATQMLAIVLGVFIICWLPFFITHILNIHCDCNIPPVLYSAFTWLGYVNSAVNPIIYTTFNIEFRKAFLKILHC
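PathHunter beta-arrestin assay in DiscoveRx D2 cells. Compounds were added with an EC20 of dopamine (50 nM final) for 90 min at 37 deg C. Luminescence was read 1 h after detection reagent, with 57 uM dopamine as the EC100 control.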
gsp ag = qHTS for Agonist of gsp, the Etiologic Mutation Responsible for Fibrous Dysplasia/McCune-Albright Syndrome: qHTS. Potency, µM (highest dose often 76.9 µM), for inactives: at the top dose activation (cAMP increase), most hits filed as activators. 0.13% of 340,000 active. gsp mutant cells, cAMP HTRF, 30 min; control for the full effect not named in the record; active = well fitted activation curve with a large enough effect; inconclusive = small, poorly fitted or top-dose-only effect, or another doubt; inactive = no such curve, though single readings can be large or run the other way; cell line not stated here;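 further: phosphodiesterase inhibitor Ro 20-1724 added with compounds to block cAMP breakdown; potency means the concentration at half of the fitted maximal effect; nearly all actives have a fitted effect of over 60% in size; about a fifth of the inactives were tested at one dose only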
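Cells stably selected in G418 were plated at 2000/well, grown 16-24 hr, then given compounds in DMSO with the PDE inhibitor […] (300 uM solution added) for 30 min at 37C; cAMP was read by HTRF.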
D2 agonist = Beta-Arrestin HTS for Positive Allosteric Modulators of the Human D2 Dopamine Receptor: Agonists; 0.084% of 360,000 active; activation, % (no concentration beside the values); DiscoveRx PathHunter D2 beta-arrestin, luminescence, 90 min; 100% = 57 uM dopamine signal; D(2) dopamine receptor (Homo sapiens), P14416; in the data active = activation above about 40%; inconclusive = about 15% to 40%; inactive = below about 15%; further: compound concentration not given in the record; the text of the record calls up to 30% inactive
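Agonist mode: compounds alone added to overnight-plated D2 PathHunter cells for 90 min at 37 C, with 57 uM final dopamine (EC100) defining full response. Beta-arrestin recruitment detected by chemiluminescent reagent, read after 1 h at ambient temperature.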
CtBP-E1A blk = qHTS Assay for Inhibitors of the CtBP/E1A Interaction; 0.49% of 340,000 active; activity change, % (concentration not given with the values); AlphaScreen GST-E1A/His-CtBP binding, 1536-well; stronger effect = lower value; control for the full effect not named in the record; AID 651724, 2012; in the data active means activity change below about -65%; inconclusive means about -30% to -65%; inactive means above about -30%; further: on the % scale 0 is the no-effect control and ±100 the full control effect
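Homogeneous bead-based format: GST-tagged E1A captured on glutathione donor beads, His-tagged CtBP on nickel acceptor beads; compounds precede bead addition by 2 h at 37 °C.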
gsp antagonist = qHTS for Antagonists of gsp, the Etiologic Mutation Responsible for Fibrous Dysplasia/McCune-Albright Syndrome: qHTS; gsp-mutant cells, cAMP HTRF, 30 min; control for the full effect not named in the record; Potency, µM (titrated, usually from 76.9 µM), without a hit: at the top dose activity change, negative = inhibition, usual class: inhibitors; 0.4% of 340,000 active; active = falling curve of any shape with a large fitted effect; inconclusive = falling curve, mostly with a smaller effect; inactive = flat or rising curve; cell line not stated here;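 further: intracellular cAMP measured with PDE inhibitor Ro 20-1724 present during compound exposure; potency means the concentration at half of the fitted maximal effect; on the % scale 0 is the no-effect control and ±100 the full control effect; nearly all actives have a fitted effect of over 65% in size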
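Cells, 2000/well, grown 16–24 h in DMEM 10% FBS with 0.5 mg/ml G418, then compounds plus […] (300 uM addition stock), 30 min at 37C. cAMP read by HTRF (cAMP-d2 and anti-cAMP antibody-K in lysis buffer) after 30 min RT.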
Six1-Eya2 blk = qHTS Assay for Inhibitors of the Six1/Eya2 Interaction; Homeobox protein SIX1 (Homo sapiens) + Protein phosphatase EYA2 (Homo sapiens), …; AlphaScreen GST-Six1/His-Eya2 binding, biochemical; stronger effect = lower value; control for the full effect not named in the record; activity change, % (test concentration not listed); 0.56% of 360,000 active; in the data active = activity change below about -65%; inconclusive = about -30% to -65%; inactive = above about -30%; further: on the % scale 0 is the no-effect control and ±100 the full control effect; compound concentration not given in the record
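Six1/Eya2 binding was read as AlphaScreen signal after compounds were pinned into GST-Six1 plus His-tagged Eya2 (5X stock 250/500 nM) in pH 8.0 Tris/NaCl/TCEP buffer, beads added, then incubated 1 h, 37 C, dark.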
* hit, by the source's call; ? = inconclusive; . = not tested or not shown; [ ] = another dose, or the depositor's remark.

SMILES	D2 potentiator	gsp ag	D2 agonist	CtBP-E1A blk	gsp antagonist	Six1-Eya2 blk
CC(=O)c1ccc(N2C(=NC(=O)COc3ccccc3)SC3CS(=O)(=O)CC32)cc1 (centres undefined)	-6	7%	2.7	.	6%	26
Cc1ccc(C)c(-n2cc(CN3CCNC(=O)CC3)c(-c3ccccc3)n2)c1	-9	-4%	-1.2	-17	4%	9
CC1(C)NC(=O)N(CC(=O)OCc2cc(=O)n3cc(Br)ccc3n2)C1=O	-2	10%[15.4 µM]	1.4	8	3%	4
O=C(NN=C1CCCCC1)c1cc(-c2ccccc2)n[nH]1	-19	-25%	0.8	0	13%	9
CC(=O)N1[C@H](Cc2ccccc2)C=C[C@]1(C)C(=O)NCc1ccccn1	-9	.	-0.7	-1	5%	-4
COCc1cc(=O)n2[nH]c(C)c(-c3ccccc3)c2n1	-6	-14%[15.4 µM]	-2.8	11	-6%	-6
CC1CN(C(=O)COC(=O)c2ccc(N(C)C)cc2)CC(C)O1 (centres undefined)	7	-10%	2.2	1	-5%	0
O=C(Cc1ccccc1)Oc1coc(CSc2ncccn2)cc1=O	5	?	-1.5	3	0%	1
S=C(NCc1ccncc1)NC1CCCC1	-6	18%[15.4 µM]	2.1	12	15%	5
Cn1c(=O)[nH]c(=O)c2c1nc(NCc1ccco1)n2Cc1ccccc1Cl	-7	-26%	-2.2	.	5%	7
CCCCNC(=O)C1(C)CCCCN1C(=O)c1cccc(OC(F)(F)F)c1 (centres undefined)	-14	.	-4.0	-15	.	-8
O=C(CSc1nnnn1Cc1ccccc1)Nc1ccc2c(c1)OCO2	-17	6%	-1.4	7	7%	5
CCOc1ccc(OCc2cccc(C(=O)N3CCOCC3)c2)cc1	3	12%	5.0	0	5%	21
CCOc1ccccc1NC(=O)c1ccc2c(O)c(S(=O)(=O)c3ccccc3)c(=O)[nH]c2c1	-3	-33%[inhibitor]	-0.8	-2	.	-1
CCC(C(=O)NC1CCCC1)N(C(=O)Cn1nnc(-c2ccc(C)o2)n1)c1cccc(OC)c1 (centres undefined)	-10	-4%[15.4 µM]	-4.3	0	2%	-22
O=C1Nc2ccccc2OC1CC(=O)N1CCCC1 (centres undefined)	-5	?	-3.3	5	3%	-4
CCC(C)Cn1cnc2c(Sc3c([N+](=O)[O-])ncn3C)nc(N)nc21 (centres undefined)	-6	-13%	-2.2	-4	-3%	-6
COc1ccccc1CNC(=O)CSc1ccc(C)cc1	-17	25%	-2.0	10	4%	9
O=S(=O)(c1cc(C(F)(F)F)ccc1Cl)N1CCCCCC1	-19	-32%[inhibitor]	2.2	8	?	18
CCOC(=O)c1ccc(NC(=S)N(CCCN2CCCC2)Cc2cccs2)cc1	-25	4%[15.4 µM]	-5.2	-11	7%	-3

Results in gsp ag, CtBP-E1A blk and D2 agonist (2 entries from above):
smiles | gsp ag | CtBP-E1A blk | D2 agonist
CC1(C)NC(=O)N(CC(=O)OCc2cc(=O)n3cc(Br)ccc3n2)C1=O | 10%[15.4 µM] | 8 | 1.4
O=C(NN=C1CCCCC1)c1cc(-c2ccccc2)n[nH]1 | -25% | 0 | 0.8

Continued:
SMILES	D2 potentiator	gsp ag	D2 agonist	CtBP-E1A blk	gsp antagonist	Six1-Eya2 blk
O=C(NCC(c1cccs1)N1CCOCC1)c1ccccc1NS(=O)(=O)c1cc([N+](=O)[O-])ccc1Cl (centres undefined)	-8	0%[15.4 µM]	-1.6	5	?	3
CCCCN(C(=O)c1cccc(-n2cnnn2)c1)c1c(N)n(CCCC)c(=O)[nH]c1=O	-3	26%	-2.2	0	.	0
CCOC(=O)c1c(NC(=O)CN2C(=O)N(C)C3(CCCCC3)C2=O)sc(C(=O)N(C)C)c1C	1	?	-1.5	.	3%	0
Cc1ccc(NC(=O)/C=C/c2ccc3c(c2)OCO3)cc1S(=O)(=O)N1CCOCC1	6	-4%	0.1	3	?	?
O=C(C1CCN(Cc2nc(-c3ccc(Cl)cc3)no2)CC1)N1CCOCC1	-12	-15%	-0.5	7	3%	4
CN(C)S(=O)(=O)c1ccc(C(=O)N2CCN(C(=O)C3CCCO3)CC2)cc1 (centres undefined)	-15	-39%[inhibitor]	-3.2	8	9%	1
CCC(C)c1ccc(NC(=O)N2CCN(C(=O)C3CCCO3)CC2)cc1 (centres undefined)	-9	-7%	-1.7	-9	9%	0
CC(=O)Nc1ccc(N/C=C(\C=O)c2nc3ccccc3o2)cc1	-1	-2%[15.4 µM]	-0.9	.	5%	-8
CCOC(=O)c1sc(N=NC2=C(O)CCCC2=O)c(C(=O)OCC)c1C	5	-5%[15.4 µM]	2.4	2	-7%	?
Cc1ccc(C)c(NS(=O)(=O)c2ccc3c(c2)Cc2cc(S(=O)(=O)Nc4cc(C)ccc4C)ccc2-3)c1	0	18%	3.6	-1	9%	8
COc1ccc(NS(=O)(=O)c2cc(NC(=O)[C@@H](NC(=O)c3ccccc3)C(C)C)ccc2C)cc1	-32	-66%[inhibitor]	-2.6	-5	-5%	-11
CCCN(C(=O)c1cc(-c2ccco2)nc2ccccc12)c1c(N)n(Cc2ccccc2)c(=O)[nH]c1=O	-11	-20%	-4.3	0	-1%	-10
C/C(=N\NC(=S)NCc1ccccc1)c1ccc2ccccc2c1OC(F)F	-12	-26%	-16	-12	-25%	-19
CCOc1ccc(/C=N/n2c(-c3ccccc3)n[nH]c2=S)cc1	-1	-47%[inhibitor]	?	-3	?	-13
N#CCCN1CCCN(CCC#N)CCN(CCC#N)CCCN(CCC#N)CC1	-5	?	0.7	0	5%	7
NC(=O)C1CCCN(C(=S)Nc2ccccc2)C1 (centres undefined)	-15	-16%	-3.7	-1	1%	2
O=C(/C=C/c1c(Cl)cccc1Cl)N1CCOCC1	-24	-1%	-3.0	.	3%	19
Cc1ccc(CN2CCN(Cc3cccn3-c3ccc(Cl)cn3)CC2CCO)o1 (centres undefined)	-10	0%	4.1	-2	11%	-2
CCOC(=O)N1CCN(c2ccc(C(=O)c3ccccc3)cc2F)CC1	10	-16%	1.6	7	32µM*	2
COc1cccc(C(NC(C)=O)c2nc(-c3cccs3)cs2)c1 (centres undefined)	-7	.	-1.9	5	.	6
O=c1oc2ccccc2n1CCCCCn1c(=O)oc2ccccc21	-8	18%	-3.9	2	2%	14
O=C(Nc1ccc(C(F)(F)F)cc1)C1CCN(S(=O)(=O)c2ccc(N3CCCC3=O)cc2)CC1	-15	-9%	0.5	.	-20%	7
Cc1ccc2c(=O)n3c(nc2c1)C(C)NC(=O)c1cccnc1-3 (centres undefined)	-1	32µM*	-4.3	-22	.	3
COc1cccc(/C=N/NC(=O)C(C)n2nnc3ccccc32)c1 (centres undefined)	-10	-8%[15.4 µM]	-6.2	-10	14%	-13
Cc1noc(C)c1COC(=O)c1cc(=O)[nH]c2ccccc12	-1	?	0.0	1	2%	1
COc1ccc(CN2C(=O)c3cccnc3C2Nc2cc(Cl)c(OC)cc2OC)cc1 (centres undefined)	-12	-42%[inhibitor]	-4.0	-16	-8%	-19
COc1ccc(CNn2cnnc2)c(O)c1	-1	-15%	3.6	7	8%	0
Cc1ccc([C@@H]2CC=C(C(=O)O)[C@H](c3cccc(Cl)c3)N2S(=O)(=O)c2ccccc2C)cc1	.	.	-1.6	-23	-13%	-1
Cc1ccccc1CC1(CO)CCCN(C(=O)CCCN2CCCCC2=O)C1 (centres undefined)	-1	?	0.0	6	7%	-3
Cc1cccc(Cn2c(C(=O)OC(C)C)cc3c2ccn3C)c1	-1	-13%	-2.0	-15	?	?
O=C(NCc1ccc(C(F)(F)F)cc1)C1CC(c2ccc(C(F)(F)F)cc2)=NO1 (centres undefined)	-3	-19%	0.2	13	4%	5
CC1=CC(=C(C#N)C#N)C=C(C)N1CCN1CCN(C(=O)Nc2cccc(Cl)c2)CC1	1	34%	6.6	.	12%	-1
COc1ccc(CCNC(=O)CC2SC(=Nc3cc(C)cc(C)c3)NC2=O)cc1OC (centres undefined)	0	-2%	0.8	3	-9%	-7
CCOC(=O)N1CCC(N2CCN(Cc3ccc(F)c(F)c3)C(CCO)C2)CC1 (centres undefined)	-7	-24%	4.9	.	27%	1
O=C(CN1C(=O)NC2(CCCc3ccccc32)C1=O)c1ccc(F)c(F)c1 (centres undefined)	2	-15%	1.1	4	10%	5
O=C1/C(=C\c2ccncc2)CCc2ccccc21	1	?	-2.1	-6	-3%	-4
COc1cc2nc(COc3ccc(C#N)cc3)n(CC#N)c(=O)c2cc1OC	16	13%	0.4	-1	-3%	-8
CCC1(C)Cc2c(sc3nnn(CC(=O)Nc4cccc5ccccc45)c(=O)c23)CO1 (centres undefined)	-1	-4%	-0.8	0	-11%	-4
CCOc1ccc2nc(COC(=O)c3cccc([N+](=O)[O-])c3)c(C(C)=O)[n+]([O-])c2c1	-2	1%	-0.4	0	12%	-3

Full records as entered above. Order of values: D2 potentiator, gsp ag, D2 agonist, CtBP-E1A blk, gsp antagonist, Six1-Eya2 blk
`CCC1(C)Cc2c(sc3nnn(CC(=O)Nc4cccc5ccccc45)c(=O)c23)CO1` (centres undefined) is listed as -1, -4%, -0.8, 0, -11%, -4
`Cc1ccccc1CC1(CO)CCCN(C(=O)CCCN2CCCCC2=O)C1` (centres undefined) is listed as -1, ?, 0.0, 6, 7%, -3
`Cc1ccc2c(=O)n3c(nc2c1)C(C)NC(=O)c1cccnc1-3` (centres undefined) is listed as -1, 32µM*, -4.3, -22, ., 3
`Cc1cccc(Cn2c(C(=O)OC(C)C)cc3c2ccn3C)c1` is listed as -1, -13%, -2.0, -15, ?, ?
`O=C(NCc1ccc(C(F)(F)F)cc1)C1CC(c2ccc(C(F)(F)F)cc2)=NO1` (centres undefined) is listed as -3, -19%, 0.2, 13, 4%, 5
